Bioassay records (PubChem BioAssay)
NPYLR7 ag: mosquito NPYLR7 agonism | HEK293T NPYLR7/Galpha15, GCaMP6s calcium fluorescence | activation, % at 10 µM | 270,000 compounds, 0.15% hits | AID 1259423; in the data active = activation above about 40%;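 also: 0% = vehicle and 100% = reference agonist at the receptor; some compounds past the cut are filed as inactive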
NPYLR7 ag max-min: also measured in NPYLR7 ag; calls as there; activation, %; measured here: Max-Min RFU normalised activation; some inactives read as strong as hits;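 span of the calcium signal over five minutes; 0% = vehicle and 100% = native peptide agonist; compound fluorescence can raise it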
The depositor's hits bear a star; & = joins results of further samples. These rows are one share of the data; count on the stated rates, not on these rows.

SMILES | NPYLR7 ag | NPYLR7 ag max-min
Cc1nc(N2CCNC(=O)CC2C)c2c(CC(C)C)csc2n1 (configuration not stated) | 10 | 8
COc1cc(CN2CCCC2c2ccc(O)cc2)cc(Br)c1OC (configuration not stated) | -1 | -2
O=C(Nc1cccc(-n2cncn2)c1)C1=CN2CCN(Cc3ccccc3C(F)(F)F)C(=O)N=C2O1 | 0 | 1
OCCC1CN(Cc2cccc3cnccc23)CCN1Cc1ccccc1F (configuration not stated) | 7 | -2
CNC(=O)CSc1nnc(N2CCN(C(=O)c3ccccc3C)CC2)s1 | -12 | -14
Oc1[nH]c2cc3c(cc2c1N=NCc1ccccc1Cl)OCCCO3 | 6 | 4
COC(=O)c1ccn(C(=O)c2ccnn2C)n1 | 15 | 6
CCN1C(=O)/C(=C\C=C2/Sc3ccccc3N2CC)N(c2ccccc2)C1=S | -2 | -7
CC(C)n1c(CN2CCN(C(=O)c3ccco3)CC2)nc2c1c(=O)n(C)c(=O)n2C | -1 | 54
COC(=O)c1coc(CN2CCCC3(CC2)CN(C)C(=O)O3)n1 (configuration not stated) | 12 | 9
COCCc1noc(C2CCCCN2C(=O)c2cnn3c2CCCC3)n1 (configuration not stated) | 7 | 5
CCOC(=O)c1nn(-c2ccccc2)c(=O)c2c(NC(=O)Cc3ccc(OC)cc3)scc12 | 4 | 0

Among those listed so far, 3 contain a carbonyl joined to an NH by a bond outside any ring.
SMILES | NPYLR7 ag | NPYLR7 ag max-min
O=C(Nc1cccc(-n2cncn2)c1)C1=CN2CCN(Cc3ccccc3C(F)(F)F)C(=O)N=C2O1 | 0 | 1
CNC(=O)CSc1nnc(N2CCN(C(=O)c3ccccc3C)CC2)s1 | -12 | -14
CCOC(=O)c1nn(-c2ccccc2)c(=O)c2c(NC(=O)Cc3ccc(OC)cc3)scc12 | 4 | 0

(list continues)
SMILES | NPYLR7 ag | NPYLR7 ag max-min
CC(C)(C)c1ccc(C2(O)CN(c3ccccc3)C3=[N+]2CCCS3)cc1 (configuration not stated) | 5 | 3
CC(C)(C)c1cc2nc(-c3ccc(F)cc3)cc(C(=O)NCCN3CCCC3)n2n1 | 9&18 | 15&16
CN(C)C(=O)CNS(=O)(=O)c1ccc(F)cc1F | 0 | -3
Cc1cc(C=NNC(=S)NC(C)C)c(C)n1CC(C)C | -2 | 17
COCCOc1nc(-c2ccc(Cl)c(Cl)c2)n(-c2ccc(NCC(O)COCc3ccccc3)cc2)n1 (configuration not stated) | -8 | 4
Cc1noc(C)c1CNC(=O)C(O)c1ccc(C(F)(F)F)cc1 (configuration not stated) | 10 | 7
CCOC(=O)CCC(=O)Nc1ccc(C2SCC(=O)N2c2ccc3c(c2)CCC3)cc1 (configuration not stated) | 3 | 17
Cc1cccc(C(=O)NNC(=O)COc2cc(C)c(Cl)c(C)c2)c1 | -3 | -7
CCS(=O)(=O)Oc1cc(CNC2CC2)ccc1OC | 2 | 6
N#CC(=Cc1cccnc1)C(=O)Nc1ccc(F)cc1 | -1 | 18
Fc1cc2ncnc(NCC3(N4CCOCC4)CCCC3)c2cc1F | -23 | -21
CC(N)=N[C@@H](CCC(=O)O)C(=O)O | 2 | 3

One compound at a time, from the list above. Order of screens: NPYLR7 ag	NPYLR7 ag max-min
CN(C)C(=O)CNS(=O)(=O)c1ccc(F)cc1F as listed: 0	-3
Fc1cc2ncnc(NCC3(N4CCOCC4)CCCC3)c2cc1F as listed: -23	-21

(listing goes on)
SMILES | NPYLR7 ag | NPYLR7 ag max-min
Cc1ccc(N(C(C)C(=O)O)S(C)(=O)=O)cc1C (configuration not stated) | 2 | 0
Cc1ccc(C2=NN(C(=O)CN3CCCCC3C)C(c3cccc(F)c3)C2)cc1 (configuration not stated) | -1 | 0
COc1ccc(CCNC(=O)CN2CN(c3ccccc3)C3(CCN(C(=O)c4cccc([N+](=O)[O-])c4)CC3)C2=O)cc1OC | 29 | 29
Cc1ccc(CN2CCC(CNC(=O)c3cc(C)nn3C)CC2)cc1 | 4 | 0
CCCCC1C=CCN1C(=O)c1cccc(C#CC(C)(C)O)c1 (configuration not stated) | 5 | 4
c1ccc(CNn2cnnc2)cc1 | 18 | 8
Cc1cccc(Cn2ccnc2CN(C(=O)c2ccco2)C2CCCCC2)c1 | 19 | 24
N#Cc1cccc(COc2ccc(NC(=O)NCCO)cc2Cl)c1 | -3 | -9
N#CCCN(C(=O)COC(=O)c1ccc(Cl)s1)c1ccccc1F | 6 | 1
O=C(Nc1ccccc1NCC(F)(F)F)c1ccc(-c2cnco2)cc1 | 2 | -3
Cc1ccccc1C(=O)N1C(C(=O)NC2CC2)COC12CCN(C(=O)c1ccccc1F)CC2 (configuration not stated) | 5 | 2
CCCn1cc(C(=O)Nc2ccncc2)c2nn(-c3ccccc3)c(=O)c-2c1 | 11 | 9

Fetched one by one from the entries so far:
SMILES | NPYLR7 ag | NPYLR7 ag max-min
Cc1ccc(C2=NN(C(=O)CN3CCCCC3C)C(c3cccc(F)c3)C2)cc1 (configuration not stated) | -1 | 0
Cc1cccc(Cn2ccnc2CN(C(=O)c2ccco2)C2CCCCC2)c1 | 19 | 24
Cc1ccc(CN2CCC(CNC(=O)c3cc(C)nn3C)CC2)cc1 | 4 | 0
N#Cc1cccc(COc2ccc(NC(=O)NCCO)cc2Cl)c1 | -3 | -9

Next section.
SMILES | NPYLR7 ag | NPYLR7 ag max-min
COc1ccc(C(=O)CCC(=O)N2CCC(O)(c3ccc(C)cn3)CC2)cc1 | 7 | -1
CCCOCc1nc2c([nH]1)CC(C)(C)CNC2=O | 16 | 14
CCOC(=O)N1CCC(NCCn2c(C)cc(C)nc2=O)CC1 | 21 | 14
CN(C)CC1(O)CCCN(C(=O)c2ccccc2N2CCCC2)CC1 (configuration not stated) | 0 | -1
Cc1ccc(Nc2ccc([N+](=O)[O-])cc2[N+](=O)[O-])cc1 | -4 | -7
CN(c1cc(Cl)nc(N)n1)C1CCN(c2ccccc2)C1=O (configuration not stated) | 10 | 8
COCC(=O)N(Cc1cccc(F)c1)Cc1cc(NC(=O)C2CCCC2)ccc1N(C)C | 15 | 13
COCC(=O)Oc1c(S(=O)(=O)c2ccc(C)cc2)c(C)nn1-c1ccccc1 | 1 | 12
C=C1c2ccccc2N=C(SCC(=O)Nc2ccc(C)cc2Cl)N1C | -2 | -2
CC(=O)OCC(=O)Nc1cccc(-c2cccc(-c3ccc4c(c3)OCCO4)n2)c1 | 4 | 4
COC(=O)CN1C(=O)[C@H](CC(C)C)NC12CCN(C(=O)c1ccccc1C(F)(F)F)CC2 | -1 | 8
Cc1ccc(NC(=O)CC(=O)NCCC2=CCCCC2)cc1 | 13 | 6

Four of the compounds above, as labelled records.
> Cc1ccc(Nc2ccc([N+](=O)[O-])cc2[N+](=O)[O-])cc1
  NPYLR7 ag: -4 | NPYLR7 ag max-min: -7
> CN(c1cc(Cl)nc(N)n1)C1CCN(c2ccccc2)C1=O (configuration not stated)
  NPYLR7 ag: 10 | NPYLR7 ag max-min: 8
> COCC(=O)N(Cc1cccc(F)c1)Cc1cc(NC(=O)C2CCCC2)ccc1N(C)C
  NPYLR7 ag: 15 | NPYLR7 ag max-min: 13
> COCC(=O)Oc1c(S(=O)(=O)c2ccc(C)cc2)c(C)nn1-c1ccccc1
  NPYLR7 ag: 1 | NPYLR7 ag max-min: 12

The results go on.
SMILES | NPYLR7 ag | NPYLR7 ag max-min
CCCc1cc(=O)[nH]c(-n2nc(C)cc2NC(=O)c2cccc(Cl)c2)n1 | 10 | 4
COc1ccc(OCCN2CCC(C(=O)NC(c3nc(OC)cc(OC)n3)c3ccccc3C)CC2)cc1 (configuration not stated) | 8 | 7
COc1cccc(OC)c1C(=O)Oc1cccc2ccc(C)nc12 | 13&7 | 13&12
COc1ccc(NC(=O)CCC2CCN(C/C=C/c3ccccc3OC)CC2)c(OC)c1 | 2 | -2
FC(F)(F)c1cc(NCCN2CCCCC2)n2ncnc2n1 | 2 | 1
COc1ccc(CCC(=O)Nc2cc(-c3cn4nc(OC)ccc4n3)ccc2C)cc1 | -7 | -13
O=C(Nc1ccc2c(c1)OC(F)(F)O2)c1ccccc1C1CCNC1 (configuration not stated) | -2 | -2
COc1ccccc1-c1nc(Nc2nc(C)cc(C)n2)n[nH]1 | 13 | 4
CCC(=O)Nc1ccc(-c2ccc3nncn3n2)cc1 | -12 | -4
O=C(O)CCS(=O)(=O)c1ccc2[nH]c(=O)oc2c1 | 0 | 1
C[C@H](C(=O)NC1CC1)N1Cc2ccc(-c3ccnn3C)nc2C1=O | 10 | 14
CNC1(C)C2CCC(C2)C1(C)C (configuration not stated) | -1&-9&2 | -10&-14&-11
Fc1cccc(Cl)c1C1Nc2cccc3cccc(c23)N1 | 0 | -2
COCc1ccc(CN2CCOc3ccc(C(C)(O)COc4ccccc4)cc3C2)o1 (configuration not stated) | 9 | 7
Cc1cccc(S(=O)(=O)NCCOc2ccc(-c3cccs3)nn2)c1 | -3 | -4
N#CC(=Cc1cccc2ccccc12)S(=O)(=O)c1ccccc1 | 3 | 10
CCCN1N=C(C)Cn2c1nc1c2c(=O)n(CC(C)C)c(=O)n1C | -1 | 11
CCOC(=O)C1=C(C)N=c2s/c(=C\c3cccc([N+](=O)[O-])c3)c(=O)n2C1c1ccccc1OC (configuration not stated) | 6 | 18
COC(=O)N1CSC2(N1C(=O)OC)C(C)(C)C(=O)C2(C)C | -5 | -5
O=C(CN1CC=C(n2c(=O)[nH]c3ccccc32)CC1)Nc1ccc2c(c1)CCC2 | 0 | -2
Cc1cccnc1C1=NC(=Cc2ccccc2)NN1 | 4 | 6
Cc1ccc(C(=O)NCCCOc2cccc([N+](=O)[O-])c2)s1 | -5 | -11
Cc1ccc(C)c2c1NC(=O)C2CC(=O)NCc1ccc2c(c1)OCO2 (configuration not stated) | 14 | -4
CC(C(=O)N1CCCCC1c1nc(C(C)(C)C)cs1)n1cccn1 (configuration not stated) | 3 | 1
O=c1ccc(-c2ccc(Cl)cc2)nn1Cc1ccc(F)cc1 | 6 | 1
CCCNC(=O)Cn1nc(-c2ccc(F)cc2)c2sc(N3CCCC3)nc2c1=O | 1 | -1
CCN(Cc1ccncc1)C(=O)c1cccc(NCc2ccc(C)cc2)c1 | 3 | 0
CCCOc1ccc(Cl)cc1S(=O)(=O)N(CC)CC | -3 | -5
COc1ccc(C(C)NC(=O)Cc2ccccc2Cl)cc1F (configuration not stated) | 1 | -1
CCOC(=O)c1nn(-c2sc(C(=O)OC)c(C)c2C(=O)OC)cc1O | 12 | 10
N#CC1(NC(=O)Cc2ccc(Br)s2)CCSC1 (configuration not stated) | -1 | 15
CCC1CN(CCNC(=O)[C@H](CC(C)C)NC(C)=O)Cc2cc(OC)ccc2O1 (some centres not stated) | 18 | 2
Cc1cc(C)n(Cc2cc(C(=O)N3CCC(O)(c4ccccc4C)C3)n[nH]2)n1 (configuration not stated) | 11 | 4
CC1CN(c2ccccc2)c2nc3c(c(=O)n(CC(=O)OCc4ccccc4)c(=O)n3C)n2C1 (configuration not stated) | 7 | 10
COCC1(CNC(=O)C23CNCC2CNC3)CCCC1 (configuration not stated) | 0 | 0
Cc1cc(C)c(S(=O)(=O)N(CC(=O)N(CCc2c[nH]c3ccccc23)Cc2ccc(C(F)(F)F)cc2)C(C)C)c(C)c1 | -6 | -4
CCC(=NCC1CCCCC1)c1c(O)n(CC)c(=S)n(CC)c1=O | 2 | 2
Cc1sc(NC(=O)C2CC2)c(C(=O)N2CCN(C3CC3)CC2)c1C | 4 | -1
Cc1nc2ccccn2c(=O)c1NC(=O)COc1cccc(C(F)(F)F)c1 | -5 | -1
COc1cc(OC)nc(N2CC(c3cccnc3)C2)n1 | 31 | 19
N=C(N)Sc1cn(Cc2ccccc2Cl)c2ccccc12 | 2 | -4
COC(=O)C1=C(C)NC2=C(C(=O)CCC2)C1c1cccc(I)c1 (configuration not stated) | 5 | 7
O=c1[nH]c(SCCO)nc2c1cnn2CCO | 2 | 1
CCOC(=O)CN(C(=O)c1cc(C)nn1C)c1ccc(F)cc1 | -4 | -6
CCCN(CCC)S(=O)(=O)c1ccc(S(=O)(=O)N2CCOCC2)cc1 | 1 | -1
N#Cc1ccc(CSCC(=O)C(C#N)c2ccccn2)cc1 (configuration not stated) | -5 | -4
Cc1cc(C)c2nc(NNC(=O)c3ccc(S(=O)(=O)N4CCc5ccccc5C4)cc3)sc2c1 | 2 | -2
CC1C(=O)N(c2ccc(Cl)cc2Cl)CCN1S(=O)(=O)c1ccc(F)cc1 (configuration not stated) | 1 | 4
c1ccc(-c2nc[nH]c2-c2ccnc3ccccc23)cc1 | 28 | 18
CCc1nc(C)c(C(=O)NCc2cc(C)cc3c(C)c(C)[nH]c23)o1 | 4 | 0
CN(Cc1cccc(C#N)c1)C(=O)c1cc(Br)ccc1O | 0 | -2
C=CCN(CC=C)c1nc(N)c2c(N)nc3c(c2c1C#N)CC(=O)N3CCC1=CCCCC1 | 8 | 9
CC(C)COC(C)c1noc(Cn2cc(Cl)c(=O)[nH]c2=O)n1 (configuration not stated) | 1 | 0
O=c1nc(SCc2c(F)cccc2Cl)c2c([nH]1)CCC2 | -3 | -7
COc1cccc(F)c1-c1c(-c2ccccc2)ncn1CC(O)c1ccccc1 (configuration not stated) | -1 | -3
CCOC(=O)C1(Cc2ccccc2C(F)(F)F)CCN(Cc2cnn(C(C)C)c2)CC1 | 5 | 5
O=C(CCNc1ccc(-n2ccnc2)cc1[N+](=O)[O-])N1CCC2(CC1)OCCO2 | -2 | -9
N#CCCN(CCC#N)Cn1nc(-c2ccccc2)n(-c2ccc(F)cc2)c1=S | 9 | 8
O=C1CCCc2occ(C(=O)N(CC3CCN(C4CCCC4)CC3)CC3CCCO3)c21 (configuration not stated) | 20 | 8
CCC1(c2ccc(F)cc2)NC(=O)N(CC(=O)N2CCN(C(=O)c3ccco3)CC2)C1=O (configuration not stated) | -3 | -4
